Screens: PubChem BioAssay, several laboratories
Vif TR-FRET: inhibitors of Vif binding to APOBEC3G peptide, primary screen, biochemical, TR-FRET, GST-Vif 1-94, biotin-A3G peptide, dose response retest (AID 1117319); TR-FRET GST-Vif / biotin-A3G peptide binding; higher % means a stronger effect; test concentration not given here; strong numbers were not always called active; 0.57% of 260,000 active; Virion infectivity factor (Human immunodeficiency virus type 1 group M subtype B (isolate …; one-dose inhibition, %; IC50 in µM for titrated hits;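 active = above the screen mean plus three standard deviations and confirmed in dose response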;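 also: Vif residues 1-94 fused to GST binding biotinylated APOBEC3G peptide 110-148; 0% = full assay without inhibitor and 100% = GST in place of GST-Vif; retest series ran down from 100 µM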
E coli growth: E. coli growth inhibition, primary screen, OD600 | Escherichia coli growth, 23 h; active compounds read low | OD600 absorbance (no concentration beside the values) | 0.21% of 330,000 active;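 active = OD600 absorbance below the run mean of sample wells minus 3.6 SD, in any replicate, cut at about 0.56 in these data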;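 also: stock transfer was 300 nL into about 60 µL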
UCH37 inh: inhibitors of human UCH37 deubiquitinase, primary screen, biochemical, Ub-AMC cleavage, fluorescence. purified proteasome/UCH37. inhibition, % (no concentration beside the values). 0.33% of 330,000 active;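 active = mean of two replicates above 20%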;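 also: 0% = compound-free wells with enzyme and 100% = wells lacking proteasome; stock transfer was 100 nL into about 20 µL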
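Material: human UCH37 enzyme supplied as purified proteasome complex. Measure: % inhibition of Ub-AMC cleavage fluorescence. Medium: pH 7.4 Tris-HCl (50 mM) with ovalbumin, ATP-MgCl2, DTT. Times: 30 min preincubation with enzyme, 25 min cleavage at room temperature. Detection: AMC fluorescence intensity at 355/460 nm.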
A1 inh: caspase 3/7 activation in MEF A1-2A-BIM cells, primary screen, A1 inhibitor project, cell-based, luminescence, HTS; AID 2462, 2010; Caspase-Glo 3/7 luminescence, 3 h; percent of clofoctol response, vehicle zero; 0.066% of 330,000 active; caspase activation, % (test concentration not listed);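 active = over half of replicate activation scores above 10%, or exactly half above 10 with the replicate mean above 10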;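 also: wells of about 30 µL received 50 nL stock; many hits fall short of the cut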
Beta2AR agonist: beta2AR agonists driving receptor internalization, primary screen, cell-based, FAP fluorogen, flow cytometry | 0.43% of 340,000 active | Beta-2 adrenergic receptor (Homo sapiens), P07550 | Am2.2-beta2AR cells; reference of the scale not given here | response, % (concentration not given with the values) | AID 504454, 2011;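 active = response above a set limit, near 3 SD of response in nonfluorescent compounds, cut at about 42% in these data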;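 also: stock transfer was 100 nL into about 11 µL; a reference agonist was the positive control; negative values mostly stem from fluorescent compounds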
Target sequence (P07550 whole entry, looked up): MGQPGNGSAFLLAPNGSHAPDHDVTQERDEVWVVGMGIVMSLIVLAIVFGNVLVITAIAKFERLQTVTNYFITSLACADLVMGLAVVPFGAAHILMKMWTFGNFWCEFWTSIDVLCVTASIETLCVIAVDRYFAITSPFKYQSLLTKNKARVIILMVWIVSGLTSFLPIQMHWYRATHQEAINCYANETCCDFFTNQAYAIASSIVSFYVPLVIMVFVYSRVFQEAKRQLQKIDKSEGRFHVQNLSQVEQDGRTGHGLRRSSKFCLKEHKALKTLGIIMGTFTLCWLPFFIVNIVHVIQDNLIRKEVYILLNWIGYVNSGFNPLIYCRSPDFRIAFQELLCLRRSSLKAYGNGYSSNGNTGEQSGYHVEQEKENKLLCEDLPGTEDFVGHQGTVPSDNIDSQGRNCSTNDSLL
HNF4A DNA FP: change in binding of human HNF4A to DNA, primary screen, biochemical, fluorescence polarization, FITC-DNA; activity change, % at 10 µM; 1 h; 0.3% of 360,000 active; in the data active = activity change above about 30%, passing the limit was not always enough;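 also: controls were the assay level and a saturating level of protein; the project sought stronger binding though the title names inhibitors; some compounds called inactive have numbers as strong as hits; positive values seem to mean higher polarization but the record does not say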
Target sequence (P41235 whole entry, looked up): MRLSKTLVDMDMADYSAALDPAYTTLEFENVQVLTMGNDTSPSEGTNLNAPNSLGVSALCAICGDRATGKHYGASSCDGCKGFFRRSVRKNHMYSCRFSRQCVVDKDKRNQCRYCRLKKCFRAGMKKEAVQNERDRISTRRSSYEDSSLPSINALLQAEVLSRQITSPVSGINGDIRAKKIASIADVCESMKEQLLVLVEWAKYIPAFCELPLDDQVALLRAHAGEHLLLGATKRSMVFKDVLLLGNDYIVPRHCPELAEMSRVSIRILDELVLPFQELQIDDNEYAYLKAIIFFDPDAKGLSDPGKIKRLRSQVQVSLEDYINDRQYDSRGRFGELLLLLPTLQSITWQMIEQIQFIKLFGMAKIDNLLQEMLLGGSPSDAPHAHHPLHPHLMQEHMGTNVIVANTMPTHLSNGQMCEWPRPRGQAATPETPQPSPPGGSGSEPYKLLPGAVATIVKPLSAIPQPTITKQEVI
LANA-H2A inh: blockers of LANA interaction with H2A/H2B – biochemical, FP readout, HTS, primary screen; 0.6% of 320,000 active; Protein LANA1 (Human herpesvirus 8 type P (isolate GK18)), Q9QR71; cell-free LANA-H2A/H2B peptide, fluorescence polarization; inhibition, % (concentration not given with the values); in the data active = inhibition mostly above about 10%, no sharp cut-off; inactive = mostly below about 6.7%;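 also: stock transfer was 7.5 nL into about 10 µL; 0% = median of vehicle wells and 100% = median of positive control wells; one replicate is shown; the record names a cut of 25% in any replicate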
The depositor's hits bear a star; . = no result given.

SMILES	Vif TR-FRET	E coli growth	UCH37 inh	A1 inh	Beta2AR agonist	HNF4A DNA FP	LANA-H2A inh
C#CCOCCOCCOCCNc1nc(N2CCN(C(=O)[C@H]([C@@H](C)CC)n3cc(CCCCN)nn3)CC2)nc(N2CCN(C(=O)[C@H](CCCCN)n3cc(CCCC)nn3)CC2)n1	.	.	-3.3	2.0	-4.2	3.2	-2.9
COc1ccc(-c2[nH]ncc2CN2CCCO2)c(F)c1	-4.5%	0.637	2.4	0.3	-4.2	2.8	0.3
Clc1ccccc1-c1nc2nc3ccccc3nc2n1-c1ccc2c(c1)OCO2	-6.9%	.	.	-0.2	-8.9	-1.6	.
O=C(NCC(c1ccco1)N1CCN(c2ccccc2)CC1)c1cccs1 (stereo not given)	5.9%	0.68	3.9	0.6	-7.3	1.4	3.7
Cc1cc(C(C#N)c2ccccc2)n2ncnc2n1 (stereo not given)	-2.2%	0.677	4.8	1.4	5.4	-0.7	0.6
Cc1ccc(OC(C)C(=O)N2CC(=O)Nc3ccccc32)cc1 (stereo not given)	.	0.681	0.9	0.1	-1.8	1.5	3.6
O=C(CCC(=O)c1cccs1)OCc1nc2ccccc2s1	-0.8%	0.705	5.4	-0.4	1.7	1.3	-1.4
NC(=O)NCCCC(=O)O	.	0.722	3.1	0.7	3.7	-0.4	-1.3
COc1ccccc1N1CC(C(=O)Nc2nnc(SCC(=O)N3CCOCC3)s2)CC1=O (stereo not given)	.	0.666	0.6	0.4	-6.3	-0.4	-1.0
CN(CC(=O)Nc1ccccc1Br)C(=O)c1ccc(COc2ccccc2)cc1	.	0.679	0.6	0.3	3.0	-0.1	-3.9
CN(C(=O)CSc1nnnn1-c1ccccc1)C1CCS(=O)(=O)C1 (stereo not given)	.	0.724	-1.7	0.4	-0.4	-1.6	-5.4
COc1ccc(CNc2ncnc3cc(OC)c(OC)cc23)cc1OC	.	0.704	1.4	0.6	-2.0	-2.5	10.6
O=C(CC1SC(N2CCCC2)=NC1=O)Nc1ccc(C(=O)N2CCCC(C(F)(F)F)C2)cc1 (stereo not given)	-6.2%	0.701	4.0	0.7	0.3	2.2	5.2
NS(=O)(=O)c1ccc(CCNC(=O)c2ccc(C(=O)c3ccccc3)cc2)cc1	.	0.665	1.0	-0.4	-9.4	2.6	3.0
CCOc1ccc(NC(=O)c2cccc3c2C(=O)N(CCOC)C3)cc1	-9.1%	0.698	-4.2	-0.8	-12.0	1.2	0.3
COc1ccc(NC(=O)CCN2C(=O)C3C4CCC(C4)C3C2=O)cc1 (stereo not given)	.	0.716	1.5	-0.5	0.0	-0.6	.
O=Cc1ccccc1OCc1nnsc1Cl	-1.1%	0.716	2.3	1.0	-4.8	-2.1	2.9
O=C(NC1(C(F)(F)F)C(=O)Nc2c1c(=O)[nH]c(=O)n2Cc1ccco1)C1CCCCC1 (stereo not given)	2.8%	0.74	2.5	-1.3	6.7	6.3	0.3
COc1cc2cnc(-c3ccccc3)c(C(=O)c3ccc(F)cc3)c2cc1OC	.	0.671	0.8	1.1	10.7	2.8	-1.8
O=C(c1n[nH]c2ccccc12)N1CCN(S(=O)(=O)c2ccc3ccccc3c2)CC1	-0.5%	0.705	-0.4	-0.8	-9.0	2.7	3.3
CCN1CCC(O)(C#Cc2ccccc2)CC1	-2.3%	0.695	2.3	-0.6	6.8	3.5	-0.6
O=C(Nc1ccc(Cl)c(Cl)c1)Nc1cc(C(=O)N2CCOCC2)ccc1N1CCCCC1	.	0.704	-0.4	-0.9	0.0	-1.8	1.5
CCC(CC)C(=O)Nc1nnc(SCC(=O)N2CCN(c3ccccc3OC)CC2)s1	31.2%	0.717	0.7	-2.7	1.1	0.8	1.9
Cc1ccccc1Nc1c(-c2cccnc2)nc2cccc(C)n12	2.3%	0.667	1.0	-0.8	-8.3	-3.8	-1.6
CCCN(Cc1ccccc1)C(=S)Nc1ccc(SC(F)F)cc1	-8.3%	0.66	4.7	.	-1.6	1.5	.
CCOC(=O)c1c[nH]n(-c2ccccc2)c1=O	-3.6%	0.661	-0.2	-0.2	-0.1	-2.2	-0.6
COc1cccc(NC(=O)C/C(C)=N/NC(=O)C2CCCCC2)c1	.	.	.	0.3	7.0	0.4	3.2
COCCNC(=O)c1ccc(C)c(NC(=O)C2=C(C)OCCS2)c1	7.2%	0.649	2.1	0.0	7.6	-3.3	-0.8
COc1ccc(/C=C/C(=O)c2ccc(NC(=O)c3cccs3)cc2)cc1OC	-1.4%	0.709	-4.0	-2.6	11.0	-0.8	0.7
CCCN(CCC)c1nc(N(CCC)CCC)[nH]c(=O)n1	0.1%	0.68	4.9	-1.2	5.2	-1.4	-2.3

Pulled one by one from above, 3 records:
SMILES	Vif TR-FRET	E coli growth	UCH37 inh	A1 inh	Beta2AR agonist	HNF4A DNA FP	LANA-H2A inh
COc1cc2cnc(-c3ccccc3)c(C(=O)c3ccc(F)cc3)c2cc1OC	.	0.671	0.8	1.1	10.7	2.8	-1.8
O=Cc1ccccc1OCc1nnsc1Cl	-1.1%	0.716	2.3	1.0	-4.8	-2.1	2.9
COc1ccc(NC(=O)CCN2C(=O)C3C4CCC(C4)C3C2=O)cc1 (stereo not given)	.	0.716	1.5	-0.5	0.0	-0.6	.

Later entries:
SMILES	Vif TR-FRET	E coli growth	UCH37 inh	A1 inh	Beta2AR agonist	HNF4A DNA FP	LANA-H2A inh
CCOC(=O)c1ccc2nc(C)cc(Nc3cccc(C(=O)O)c3)c2c1	20.8%	0.701	3.4	0.8	.	.	-2.8
Cc1cccc2cc(COC(=O)C(C)(C)C)c(=O)[nH]c12	-3.1%	0.682	1.8	1.2	0.4	2.4	-2.7
Cc1ccc(-n2nc3c(c2NC(=O)/C=C\c2ccc4c(c2)OCO4)CSC3)c(C)c1	16.1%	0.702	-15.0	0.6	4.0	1.9	3.1
COC(=O)c1[nH]c2cc(OC)ccc2c1N	2.5%	0.709	-25.5	-0.1	-13.1	0.4	7.4
CC(C)NC(=O)c1ccc2c(c1)N(Cc1ccccc1)C(=O)C(C)(C)O2	6.0%	.	.	-0.2	-3.3	-3.8	-5.5
C[C@@H](O)Cc1cn(CC(=O)NCCCCCCCCCCC(=O)N2CCNCC2)nn1	.	.	0.3	0.4	-2.6	-0.4	1.2
COc1cccc(-c2cc(C(=O)Nc3ccc4c(c3)OCCO4)c3ccccc3n2)c1	1.8%	0.704	4.1	.	.	.	.
COc1ccc(C(NC(=O)c2ccco2)c2ccc(OC)c(OC)c2)cc1 (stereo not given)	2.3%	0.737	3.0	0.0	-5.3	-0.1	2.0
CCCCC1CCC(C(=O)Nc2ccc(S(=O)(=O)Nc3nccs3)cc2)CC1 (stereo not given)	-0.4%	0.726	2.6	-0.4	13.9	-4.2	4.2
Nc1ccc(-c2c3ccc(=O)cc-3oc3cc(O)ccc23)cc1C(=O)O	.	.	.	-0.9	-159.4	-99.2	37.6*
Cc1ccc(S(=O)(=O)N(CC(=O)NC2CCCC2)c2cccc(C)c2)cc1	1.3%	0.679	1.4	0.9	-4.4	-0.4	.
S=c1[nH]nc(-c2ccc3ncccc3c2)n1-c1ccc2c(c1)OCCO2	8.1%	0.713	3.0	-1.1	-1.1	2.3	.
c1ccc(Cn2cnc3ccccc32)cc1	7.8%	0.588	-1.7	-1.2	-2.4	-1.8	-4.1
OCCCc1n[nH]c(=S)n1-c1ccccc1	.	0.679	2.9	-0.2	15.0	0.4	1.5
O=C(NNC(=O)c1cc(Cl)ccc1O)c1cccc(S(=O)(=O)N2CCOCC2)c1	4.7%	0.706	-0.6	0.4	-0.3	3.4	2.3
COc1ccccc1S(=O)(=O)n1cc(Cc2ccccc2)c(N)n1	13.6%	0.663	0.8	0.5	10.3	-1.9	-1.4
CCOC(=O)C1=C(C)N(c2ccc(OC)cc2)C(=O)/C1=C\c1cccs1	.	0.692	2.3	0.6	-0.7	5.2	-0.4
O=C1C2C3C=CC(C3)C2C(=O)N1CCCO (stereo not given)	20.6%	0.725	0.7	0.2	-3.7	0.8	-2.2
Cc1ccc(-c2c(C)n([O-])c3c([n+]2=O)CCC3)o1	6.3%	0.746	1.7	-0.1	-0.9	-3.5	0.1
COc1ccc(CC(C)N2CCN(Cc3ccccc3)CC2)cc1OC (stereo not given)	.	0.684	0.1	-0.1	-6.0	-0.5	-5.2
Cc1ncc(CN2CCN(Cc3ccccc3)C(CCO)C2)s1 (stereo not given)	-9.5%	0.694	0.3	0.6	4.8	0.3	-1.1
COc1ccccc1C(=O)Nc1ccnn1C1CCN(Cc2ccn[nH]2)CC1	-1.6%	0.711	3.9	-0.3	-1.7	-3.2	-1.7
CN(C(=O)c1ccc(Cl)cc1)C1=CCCCC1CCC#N (stereo not given)	26.1%	0.757	-0.7	-0.6	-0.1	-3.0	10.5
Cc1ccc(C(=O)Nc2ccc(N3CCN(S(C)(=O)=O)CC3)cc2)cc1C	4.5%	0.695	-30.5	1.0	7.6	0.0	-8.2
CCOC(=O)c1nn(-c2ccc(C)c(Cl)c2)c(=O)c(C#N)c1C	.	0.693	-2.8	-7.6	7.3	0.9	-2.5
O=C(C1CCN(S(=O)(=O)c2ccccc2)CC1)N1CCCCC1	-1.8%	0.695	4.8	-0.5	1.4	-0.4	2.7
CC1CN(Cc2c(O)ccc3c(=O)c(-c4ccccc4Cl)coc23)CC(C)O1 (stereo not given)	0.9%	0.693	-405.6	0.9	8.3	-1.3	-1.7
CC1=CC(C)(C)N=C(NC#N)N1	3.4%	0.724	0.8	1.4	-7.1	0.0	1.6
CN(CCCOc1ccccc1F)Cc1ccccc1	.	0.725	4.7	0.4	3.4	2.8	2.4
COc1cccc(Cc2n[nH]c(=S)n2Cc2ccco2)c1	12.7%	0.69	3.3	-0.7	-2.7	3.0	5.3
COc1cccc(OCCCN2CCN(S(=O)(=O)c3ccc(NC(C)=O)cc3)CC2)c1	2.5%	0.711	-0.3	0.3	-1.2	5.4	6.1
O=C(OCc1nnc(-c2ccccc2)o1)C1CCN(S(=O)(=O)c2cccs2)CC1	-5.4%	0.721	4.8	-1.2	2.0	3.7	0.4
COC(=O)c1ccc(CSc2nnc3c(n2)[nH]c2ccccc23)cc1	3.6%	0.682	3.1	0.1	-10.4	-2.5	0.0
Cc1ccsc1C(=O)NCc1ccc(Cl)cc1	.	0.628	5.8	-1.0	-6.3	0.9	-4.2
CCN(C(=O)Nc1ccccc1)c1ccccc1	1.8%	.	.	-0.5	5.7	-3.4	16.7*
CNS(=O)(=O)c1cccc(C(=O)OCC(=O)N2CCN(C(=O)c3ccco3)CC2)c1	.	0.671	0.4	-0.2	1.2	-1.7	4.5
COc1ccc(OC)c(N2C(=O)CC(Cc3ccc(C)cc3)C2=O)c1 (stereo not given)	.	0.624	2.7	0.2	-7.5	0.1	-1.1
COc1ccc(NC(=O)c2cccc(-c3ccc(O)cc3)c2)cn1	.	.	.	0.0	-0.9	-41.3	9.1
CC(C)(C)c1nc(Sc2ncccc2[N+](=O)[O-])n[nH]1	6.9%	0.64	6.7	0.2	-3.6	3.9	0.1
O=C(NN1CCOCC1)c1ccccc1F	-5.3%	0.729	0.7	-0.3	-5.3	-3.8	-1.8
COc1ccc(-c2[nH]ncc2CNC(C)CCn2cccn2)c(F)c1 (stereo not given)	3.4%	0.686	5.6	0.8	-1.9	8.4	2.2
CCCCn1c(N)c(N(CCOC)C(=O)CSc2n[nH]c(-c3ccc(C)cc3)n2)c(=O)[nH]c1=O	-5.8%	0.712	3.1	-0.4	-4.4	-1.6	-0.1
N#CCCN1CCN(C2=NC(=O)C(=C3CCCCC3)S2)CC1	5.1%	0.671	2.9	0.1	-3.7	9.9	4.0
